Assay outcomes from PubChem.
gsp antag: qHTS for Antagonists of gsp, the Etiologic Mutation Responsible for Fibrous Dysplasia/McCune-Albright Syndrome: qHTS; gsp-mutant cells, cAMP HTRF, 30 min; control for the full effect not named in the record; hit rate 0.4% among 340,000; AID 624288, 2012; Potency, µM (top dose mostly 76.9 µM), for inactives: at the top dose activity change, negative = inhibition, actives largely listed as inhibitors; active = falling curve of any shape with a large fitted effect; inconclusive = falling curve, mostly with a smaller effect; inactive = flat or rising curve; cell line not stated here;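 further: intracellular cAMP measured with PDE inhibitor Ro 20-1724 present during compound exposure; potency means the concentration at half of the fitted maximal effect; on the % scale 0 is the no-effect control and ±100 the full control effect; nearly all actives have a fitted effect of over 65% in size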
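Measurement of cellular cAMP by homogeneous time-resolved fluorescence following a 30 min compound exposure at 37C. The PDE inhibitor […] was present throughout; the assay buffer was DPBS with 0.05% BSA and 0.005% Tween 20.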
TRPV1 PAM: HTS Assay for Compounds that Act as Potentiators of the Vanilloid Receptor 1; potentiation, % at 8.33 µM; hit rate 0.02% among 320,000; AID 540277, 2011; TRPV1-expressing cells, Fluo-8 calcium influx, capsaicin EC20 potentiation; host cell line not named in the record; control for the full effect not named in the record; Transient receptor potential cation channel subfamily V member 1 (Homo sapiens), Q8NER1; active means potentiation above 80%; inconclusive means 30% to 80%; inactive means below 30%; further: 0% is about no effect
Target sequence (Q8NER1 whole entry, looked up): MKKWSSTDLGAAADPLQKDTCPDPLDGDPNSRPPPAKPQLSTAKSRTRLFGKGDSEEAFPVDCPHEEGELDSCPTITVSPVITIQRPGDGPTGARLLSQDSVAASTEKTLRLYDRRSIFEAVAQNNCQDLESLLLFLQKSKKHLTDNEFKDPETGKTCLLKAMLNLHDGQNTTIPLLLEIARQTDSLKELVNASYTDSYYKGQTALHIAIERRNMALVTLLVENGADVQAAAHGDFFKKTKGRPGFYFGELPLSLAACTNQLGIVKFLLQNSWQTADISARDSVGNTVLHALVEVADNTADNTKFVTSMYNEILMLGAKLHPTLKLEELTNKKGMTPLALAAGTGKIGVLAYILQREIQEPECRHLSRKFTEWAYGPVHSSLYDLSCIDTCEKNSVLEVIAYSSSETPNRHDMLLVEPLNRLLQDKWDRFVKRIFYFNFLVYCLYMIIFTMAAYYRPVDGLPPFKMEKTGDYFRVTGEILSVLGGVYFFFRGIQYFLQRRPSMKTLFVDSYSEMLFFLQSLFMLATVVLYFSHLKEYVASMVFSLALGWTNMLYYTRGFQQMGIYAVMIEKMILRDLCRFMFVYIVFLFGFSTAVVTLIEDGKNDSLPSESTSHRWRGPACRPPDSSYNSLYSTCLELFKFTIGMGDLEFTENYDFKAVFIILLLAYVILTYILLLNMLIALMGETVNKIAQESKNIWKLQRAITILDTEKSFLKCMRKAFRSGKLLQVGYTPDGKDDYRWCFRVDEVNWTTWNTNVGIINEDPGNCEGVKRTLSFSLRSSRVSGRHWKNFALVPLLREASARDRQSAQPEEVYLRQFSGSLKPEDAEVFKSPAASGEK
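Cells expressing TRPV1 were dye-loaded with Fluo-8 and read kinetically: 10 s baseline, 3 min after compound (agonist portion), then 2 min after EC20 capsaicin (allosteric enhancer portion). Calcium-bound dye fluorescence at 480/520 nm.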
Sfp PPTase inh: qHTS Assay for Inhibitors of Bacillus subtilis Sfp phosphopantetheinyl transferase (PPTase) | 4'-phosphopantetheinyl transferase ffp (Bacillus subtilis), Q9F4F7 | Biochemical Sfp PPTase activity, qHTS | Potency, µM, for inactives: max response, negative = inhibition, usual class: inhibitors | hit rate 3.5% among 310,000 | AID 1490, 2009; active means well fitted inhibition curve with a large enough effect; inconclusive means small, poorly fitted or top-dose-only effect, or another doubt; inactive means no such curve, though single readings can be large or run the other way;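 further: the enzyme is Sfp with the accession as filed and its product quenches rhodamine fluorescence; potency means the concentration at half of the fitted maximal effect; 0% = enzyme reaction without inhibitor and -100% = no enzyme wells; top concentration of the series not given in the record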
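Sfp 15 nM + cpd, 15 min RT; start w/ rhodamine-CoA 5 uM, BHQ-2-YbbR 12.5 uM (final); 50 mM Hepes pH 7.6, 10 mM MgCl2, 0.01% NP-40, 0.01% BSA; read 525/598 nm at 0 and 30 min.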
Menin-MLL FL inh: qHTS Assay for Inhibitors Targeting the Menin-MLL Interaction in MLL Related Leukemias: Competition With Fluorescein Labeled MLL-derived Peptide | 290,000 tested, under 10 active | FP activity change, % at 61.4 µM | Fluorescence polarization, fluorescein-MLL peptide displacement from menin; inconclusive = falling polarisation curve, or a change in total fluorescence; inactive = total fluorescence flat and polarisation flat or rising; no compound was filed as active; the % refers to the polarisation; negative = inhibition;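 further: % of control where 0% means no effect; inhibitors lower the polarisation; unlabelled MLL peptide was the positive control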
gsp agonist: qHTS for Agonist of gsp, the Etiologic Mutation Responsible for Fibrous Dysplasia/McCune-Albright Syndrome: qHTS | gsp mutant cells, cAMP HTRF, 30 min; control for the full effect not named in the record | AID 624287, 2012 | hit rate 0.13% among 340,000 | Potency, µM (top dose mostly 76.9 µM), inactives show at the top dose activation (cAMP increase), actives largely listed as activators; active = well fitted activation curve with a large enough effect; inconclusive = small, poorly fitted or top-dose-only effect, or another doubt; inactive = no such curve, though single readings can be large or run the other way; cell line not stated here;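 further: phosphodiesterase inhibitor Ro 20-1724 added with compounds to block cAMP breakdown; potency means the concentration at half of the fitted maximal effect; nearly all actives have a fitted effect of over 60% in size; about a fifth of the inactives were tested at one dose only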
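Cells in DMEM/10% FBS with G418 were pretreated with compounds in DMSO plus […] (300 uM stock) for 30 min at 37C. cAMP was measured by HTRF (cAMP-d2 plus anti-cAMP antibody-K) after 30 min at room temperature.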
ClpP mod: qHTS Assay for Activators of ClpP | hit rate 1.9% among 340,000 | Potency, µM (top dose mostly 57.5 µM), inactives show at the top dose activity change, negative = active | purified B. subtilis ClpP, FRET peptide cleavage, 20 min | ATP-dependent Clp protease proteolytic subunit (Bacillus subtilis (strain 168)), P80244; active = well fitted falling curve with a large enough effect; inconclusive = small, poorly fitted or top-dose-only effect; inactive = no such curve, though single readings can be large or run the other way; further: potency means the concentration at half of the fitted maximal effect; the source files actives as falling curves though it sought activators and does not explain the sign; nearly all actives have a fitted effect of over 65% in size; many hits overshoot -100%
Target sequence (P80244 whole entry, looked up): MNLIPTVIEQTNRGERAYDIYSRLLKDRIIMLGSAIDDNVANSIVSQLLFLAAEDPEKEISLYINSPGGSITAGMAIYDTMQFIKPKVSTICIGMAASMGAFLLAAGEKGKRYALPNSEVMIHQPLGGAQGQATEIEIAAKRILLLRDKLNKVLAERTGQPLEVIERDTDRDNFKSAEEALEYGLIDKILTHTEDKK
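ClpP 10 microg/mL final, pH 8 Tris/KCl buffer with BSA, glycerol, Tween-20; compound pinned in; FRET-FV substrate; RT 20 min; Ex320/Em430; ΔFRET vs ADEP 5.8 microM, DMSO, no enzyme.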
TRPML1 blocker: qHTS for Inhibitors of the Human Mucolipin Transient Receptor Potential 1 (TRPML1). Mucolipin-1 (Homo sapiens), Q9GZU1. TRPML1-inducible cells, Ca2+ dye fluorescence, FDSS; hits give low values; inhibition of EC80 agonist-evoked calcium signal. activity change, negative = inhibition, % (test concentration not listed). hit rate 0.02% among 390,000. AID 624415, 2012; in the data active means activity change below about -50%; inconclusive means about -30% to -50%; inactive means above about -30%;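 further: stimulus is agonist 54-4 at its EC80 concentration; on the % scale 0 is the no-effect control and ±100 the full control effect; compound concentration not given in the record; the text of the record puts the active cut at -80%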
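Calcium fluorescence in TRPML1-DL cells induced overnight with Tet: a 110 s read after compound pin addition, then a 110 s antagonist read after challenge with 54-4 at 4 uM final (EC80).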
Starred values were filed as active, the others as inactive; ? = inconclusive; / = no result given; & = joins results of further samples; [ ] = another dose, or the depositor's remark.

SMILES	gsp antag	TRPV1 PAM	Sfp PPTase inh	Menin-MLL FL inh	gsp agonist	ClpP mod	TRPML1 blocker
Cc1cccc(Nc2nc(NC(C)C)nc(Oc3ccc(=O)n(C)n3)n2)c1	1.3%	-6.2	2.1%	4.7	0.0%	1.6%	11.7
O=C(Cn1cnc2c(nnn2Cc2ccccc2)c1=O)NCc1ccco1	2.3%	6.7	16.9%	-0.8	4.3%	0.4%	1.9
COc1cc(/C=C2\SC(=S)N(NS(=O)(=O)c3ccc(C)cc3)C2=O)ccc1O	?	-1.7	-10.8%	?	-21.1%	-0.2%	/
NC(=O)C1CCCN(CC(O)COCc2ccc(Cl)cc2)C1 (stereo not drawn)	10.8%	-2.9	-7.5%	-5.8	-12.1%	1.2%	15.4
CN(C)c1ccc(NC(=O)CN2CCc3ccccc3C2)cc1	-7.3%	-14.9	11.3%	-2.5	-1.0%	/	9.5
O=C1OCC(CO)(CO)N=C1NNc1cc(Cl)ccc1Cl	-5.7%	0.2	?	2.2	1.4%	0.5%	-13.3
COc1cc(C(=O)NCC2(N(C)C)CCCCC2)ccc1OCc1ccccc1	-17.9%	1.9	11.9%	-1.1	26.6%[15.4 µM]	/	14.5
CNc1c([N+](=O)[O-])cnn1-c1ccccn1	5.6%	1.8	-1.9%	0.2	4.9%[15.4 µM]	/	5.0
CCn1nccc1C(=O)Nc1ccc(Cl)cn1	-3.9%	8.3	-11.1%	-1.7	-0.1%	0.2%	-13.2
N#C/C(=C(\O)c1cc(Cl)sc1Cl)c1nc2ccccc2[nH]1	7.3%	11.9	11.4%	6.3	-9.5%[15.4 µM]	/	5.0
O=C(COc1ccccc1Br)Nc1ccc2c(c1)OCCCO2	-9.4%	-15.4	-6.2%	-0.6	-19.0%	/	8.4
CCc1nnc(NC(=O)CSc2nnc(Cc3ccccc3)o2)s1	-17.6%	0.9	?	2.2	-31.4%[inhibitor]	0.6%	4.2
CCc1nnc(NC(=O)CCC(=O)O)s1	12.3%	4.6	-5.3%	-3.1	?	1.5%	0.5
CC(=O)c1cc(-c2ccc(F)cc2)n(CCC(=O)Nc2cccnc2)c1C	-0.1%	-26.1	6.4%	2.4	2.7%	/	-4.6
O=C(CCC(=O)N(Cc1ccco1)C(C(=O)NC1CCCC1)c1ccncc1)Nc1cccnc1 (stereo not drawn)	14.5%	4.3	4.4%	3.4	7.3%	-4.0%	10.7
O=C(O)C1C2CCC(C2)C1C(=O)NCc1ccco1 (stereo not drawn)	6.2%	7.5	?	1.5	0.0%	-9.2%	4.6
O=C1CCCN1CCCNc1nc2c(S(=O)(=O)c3ccccc3)nnn2c2ccc(Cl)cc12	-3.4%	-0.2	-18.9%	-0.1	7.7%	3.6%	24.3
S=C(Nc1ccccc1)Nc1nccs1	-6.8%	-7.5	?	-0.3&0.4	35.1%	1.5%	7.4
O=C(CCN1C(=O)/C(=C/c2ccccc2)SC1=S)NC1CCS(=O)(=O)C1 (stereo not drawn)	1.2%	9.9	7.0%	/	-22.9%	0.0%	-4.0
CCOc1ccc(N(CC(=O)NCCc2ccc(C)cc2)S(=O)(=O)c2c(C)noc2C)cc1	-12.4%	-3.9	13.3%	/	-7.8%	0.9%	23.6
CCOc1ccc(S(=O)(=O)N(CC(=O)NCc2cccnc2)c2ccc(F)cc2)cc1	3.9%	-2.1	0.8%	2.3	8.0%[15.4 µM]	/	-13.8
COc1ccc(NC(=O)CN2CCC(C(N)=O)(N3CCCCC3)CC2)cc1	13.7%	-2.2	6.9%	1.0	-43.5%[inhibitor]	-0.5%	-4.0
COc1ccc(NC(=O)N(C)C[C@@H]2OCc3cnnn3CCCC(=O)N([C@H](C)CO)C[C@@H]2C)cc1	/	/	/	/	-11.6%	-2.2%	14.7
CSc1ccc(-c2cc(=O)c3ccccc3o2)cc1	-19.2%	-8.2	-3.8%	3.8	-8.5%	10µM*	5.6
COc1ccc(-c2cn3ccsc3n2)cc1	-3.3%	0.9	8.6%	0.0	11.2%	0.6%	-3.1
The listing continues.
SMILES	gsp antag	TRPV1 PAM	Sfp PPTase inh	Menin-MLL FL inh	gsp agonist	ClpP mod	TRPML1 blocker
COCCN(C(=O)COC(=O)c1ccccc1Oc1ccccc1)c1c(N)n(Cc2ccccc2)c(=O)[nH]c1=O	2.2%	-22.8	-2.1%	/	4.2%[15.4 µM]	-1.8%	-6.8
COc1ccc(C(=O)N/N=C2\CCc3ccccc32)cc1OC	2.1%	4.5	26.8%	-7.2	?	1.6%	-8.6
CC(=O)c1cc(F)c(N2CCCC2)cc1C	-4.4%	6.5	-9.4%	2.4	0.0%	-1.0%	12.9
CCN(CCO)c1nc(NCc2ccccc2)c2cnn(C)c2n1	7.4%	-3.9	17.8%	2.9	28.0%	-18.4%	-8.3
C=CCSC1=C(C#N)C2(CCCCC2)C(C#N)C(=O)N1 (stereo not drawn)	-15.3%	5.3	12.8%	1.7	-7.2%	-0.1%	-5.0
COc1ccc(OCC(=O)Nc2c3c(nn2-c2ccc(OC)cc2)CS(=O)(=O)C3)cc1	1.7%	3.4	-2.0%	/	-46.9%[inhibitor]	-1.7%	40.2
CC1Cc2ccccc2N1C(=O)c1ccc(N2CCCCC2)c([N+](=O)[O-])c1 (stereo not drawn)	-35.3%	-3.4	-5.6%	2.7	11.7%	0.8%	1.7
CC(=O)c1c2c3c(c(Br)ccc3n(C)c1=O)C(=O)c1ccccc1-2	0.6%	-2.2	-11.4%	/	10.5%[15.4 µM]	/	-18.0
Cc1ccc(NC(=O)COc2cccc3ccccc23)c(O)c1	-0.8%	5.0	/	/	2.5%	-11.6%	3.3
Cc1cccn2c(=O)c(/C=C(\C#N)C(=O)NC3CCS(=O)(=O)C3)c(N3CCC(C)CC3)nc12 (stereo not drawn)	-6.4%	18.7	0.7%	9.4	-6.2%[15.4 µM]	?	9.3
O=C(O)CN1C(=O)/C(=C\c2ccccc2OCc2ccccc2)SC1=S	/	/	/	/	-44.2%[inhibitor]	1.0%	8.9
CS(=O)(=O)N(CC(=O)N1CCCCCC1)c1cccc(Br)c1	3.0%	-11.2	-1.8%	2.3	-12.1%	-1.6%	-3.3
CCOCCCNC(=O)C(C)NS(=O)(=O)c1ccc(C)cc1 (stereo not drawn)	1.6%	18.0	1.6%	-2.1	-32.0%[inhibitor]	-4.0%	6.3
COc1ccc2ccccc2c1CNCc1ccc(C)cc1	4.0%	-12.3	-22.1%	-0.4	2.1%	/	2.8
O=C(CN1c2cccc3cccc(c23)S1(=O)=O)NCc1ccc(Cl)cc1	-1.9%	11.4	/	/	4.8%	-21.1%	27.9
CCOc1ccc(-n2c(SCC(=O)Nc3nccs3)nc3c(c2=O)SCC3)cc1	3.4%	16.7	0.6%	5.3	21.8%	-2.2%	12.2
Cc1cc(Cl)ccc1OCC(=O)OC(C)C(=O)NC(N)=O (stereo not drawn)	-0.9%	3.3	-2.6%	3.6	-47.4%	0.8%	-0.4
Cc1ccc(S(=O)(=O)N(C)C)cc1NC(=S)NC(C)CCCC(C)C (stereo not drawn)	-31.0%	-9.5	22.6%	1.2	11.2%[15.4 µM]	-3.5%	19.0
CCN(CC)S(=O)(=O)c1cccc(NC(=O)C2SC(=Nc3ccc(C)cc3C)C(C(=O)NC(C)COC)=C2N)c1 (stereo not drawn)	?	-2.9	7.7%	1.2	20.9%	-6.1%	-3.4
O=S(=O)(Nc1nc2ccccc2nc1OCC(F)(F)F)c1cccs1	-2.7%	10.7	28.9%	0.5	46.1%	-12.9%	7.5
O=C1NC(=O)/C(=C\c2ccccc2Oc2ccc(F)c(F)c2)S1	?	17.4	15.1%	0.6	-2.8%	-2.3%	-6.6
Cc1ccnc(NC(=S)NC(=O)/C=C/c2ccc(Cl)cc2)c1	-5.0%	-31.0	15.0%	2.8	-56.8%[inhibitor]	0.7%	0.4
COCCn1c(=O)[nH]c2cc(C(=O)NCCCN3CCN(c4ccc(F)cc4)CC3)ccc2c1=O	10.2%	9.8	-1.0%	0.3	7.2%	28.2µM*	-6.5
CN(C)S(=O)(=O)c1ccc(C(=O)Nc2nnc(SCC(=O)N3CCOCC3)s2)cc1	/	/	/	/	-1.5%	-1.4%	4.7
O=C(Cc1ccc2ccccc2c1)Nc1ccccc1Br	15.9%	?	31.7%[activator]	3.6	0.6%[15.4 µM]	-4.0%	-0.7
(listing goes on)
SMILES	gsp antag	TRPV1 PAM	Sfp PPTase inh	Menin-MLL FL inh	gsp agonist	ClpP mod	TRPML1 blocker
CCOC(=O)c1c(NC(=O)c2ccccc2C(=O)O)sc2c1CCC2	-15.0%	18.0	17.2%	4.3	-18.2%	-2.0%	-9.8
COc1ccc(-n2c(C)cc(C(=O)Cn3c(NCCO)nc4ccccc43)c2C)cc1	9.3%	13.5	-21.4%	-5.4	1.9%	0.0%	5.2
Nc1n[nH]c(N)c1N=Nc1ccccc1F	13.0%	3.1	1.8%	0.7	-1.3%[15.4 µM]	/	0.2
Cc1cc([N+](=O)[O-])ccc1-c1ccc(/C=N/NC(=O)c2ccc(Br)o2)o1	?	15.6	-6.0%	/	9.7%	1.2%	7.7
CCOC(=O)NC1(Nc2ccc(C)cc2)Oc2ccccc2O1	8.7%	-21.4	35.5µM*	6.2	13.7%	0.8%	18.4
CCOC(=O)CSc1nsc(SCC(=O)OCC)c1C#N	-20.1%	-0.6	7.2%	0.7	-37.5%[inhibitor]	-4.2%	-2.8
Cc1cccc(OCC2=N/C(=C\N(C)C)C(=O)O2)c1	-1.8%	?	10.2%	-0.4	-5.7%	1.1%	-7.8
CCC(=O)N1CCc2cc(S(=O)(=O)CCC(=O)Nc3ccc(C)cn3)ccc21	8.1%	-13.6	10.7%	-2.1	?	-1.8%	1.6
CC1CCN(CCCNC(=O)CCCNC(=O)Cn2cnc3sc4c(c3c2=O)CCCC4)CC1	18.5%	16.3	1.1%	0.5	?	-1.3%	2.4
